Compound activity deposited in PubChem by National Center for Advancing Translational Sciences (NCATS).
nsP2pro inh: blocks chikungunya virus nsP2 protease peptide cleavage; Q8JUX6; FRET peptide cleavage, nsP2pro, fluorescence 1 h; Potency, µM (titrated, usually from 24.9 µM), without a hit: at the top dose activity change, negative = inhibition, most hits filed as inhibitors; 31,000 compounds, 1.1% hits; active means well fitted inhibition curve with a large enough effect; inconclusive means small, poorly fitted or top-dose-only effect; inactive means no such curve, though single readings can be large or run the other way; also: nearly all actives have a fitted effect of over 60% in size; a reference inhibitor and vehicle were the controls
Target sequence (Q8JUX6 whole entry, looked up): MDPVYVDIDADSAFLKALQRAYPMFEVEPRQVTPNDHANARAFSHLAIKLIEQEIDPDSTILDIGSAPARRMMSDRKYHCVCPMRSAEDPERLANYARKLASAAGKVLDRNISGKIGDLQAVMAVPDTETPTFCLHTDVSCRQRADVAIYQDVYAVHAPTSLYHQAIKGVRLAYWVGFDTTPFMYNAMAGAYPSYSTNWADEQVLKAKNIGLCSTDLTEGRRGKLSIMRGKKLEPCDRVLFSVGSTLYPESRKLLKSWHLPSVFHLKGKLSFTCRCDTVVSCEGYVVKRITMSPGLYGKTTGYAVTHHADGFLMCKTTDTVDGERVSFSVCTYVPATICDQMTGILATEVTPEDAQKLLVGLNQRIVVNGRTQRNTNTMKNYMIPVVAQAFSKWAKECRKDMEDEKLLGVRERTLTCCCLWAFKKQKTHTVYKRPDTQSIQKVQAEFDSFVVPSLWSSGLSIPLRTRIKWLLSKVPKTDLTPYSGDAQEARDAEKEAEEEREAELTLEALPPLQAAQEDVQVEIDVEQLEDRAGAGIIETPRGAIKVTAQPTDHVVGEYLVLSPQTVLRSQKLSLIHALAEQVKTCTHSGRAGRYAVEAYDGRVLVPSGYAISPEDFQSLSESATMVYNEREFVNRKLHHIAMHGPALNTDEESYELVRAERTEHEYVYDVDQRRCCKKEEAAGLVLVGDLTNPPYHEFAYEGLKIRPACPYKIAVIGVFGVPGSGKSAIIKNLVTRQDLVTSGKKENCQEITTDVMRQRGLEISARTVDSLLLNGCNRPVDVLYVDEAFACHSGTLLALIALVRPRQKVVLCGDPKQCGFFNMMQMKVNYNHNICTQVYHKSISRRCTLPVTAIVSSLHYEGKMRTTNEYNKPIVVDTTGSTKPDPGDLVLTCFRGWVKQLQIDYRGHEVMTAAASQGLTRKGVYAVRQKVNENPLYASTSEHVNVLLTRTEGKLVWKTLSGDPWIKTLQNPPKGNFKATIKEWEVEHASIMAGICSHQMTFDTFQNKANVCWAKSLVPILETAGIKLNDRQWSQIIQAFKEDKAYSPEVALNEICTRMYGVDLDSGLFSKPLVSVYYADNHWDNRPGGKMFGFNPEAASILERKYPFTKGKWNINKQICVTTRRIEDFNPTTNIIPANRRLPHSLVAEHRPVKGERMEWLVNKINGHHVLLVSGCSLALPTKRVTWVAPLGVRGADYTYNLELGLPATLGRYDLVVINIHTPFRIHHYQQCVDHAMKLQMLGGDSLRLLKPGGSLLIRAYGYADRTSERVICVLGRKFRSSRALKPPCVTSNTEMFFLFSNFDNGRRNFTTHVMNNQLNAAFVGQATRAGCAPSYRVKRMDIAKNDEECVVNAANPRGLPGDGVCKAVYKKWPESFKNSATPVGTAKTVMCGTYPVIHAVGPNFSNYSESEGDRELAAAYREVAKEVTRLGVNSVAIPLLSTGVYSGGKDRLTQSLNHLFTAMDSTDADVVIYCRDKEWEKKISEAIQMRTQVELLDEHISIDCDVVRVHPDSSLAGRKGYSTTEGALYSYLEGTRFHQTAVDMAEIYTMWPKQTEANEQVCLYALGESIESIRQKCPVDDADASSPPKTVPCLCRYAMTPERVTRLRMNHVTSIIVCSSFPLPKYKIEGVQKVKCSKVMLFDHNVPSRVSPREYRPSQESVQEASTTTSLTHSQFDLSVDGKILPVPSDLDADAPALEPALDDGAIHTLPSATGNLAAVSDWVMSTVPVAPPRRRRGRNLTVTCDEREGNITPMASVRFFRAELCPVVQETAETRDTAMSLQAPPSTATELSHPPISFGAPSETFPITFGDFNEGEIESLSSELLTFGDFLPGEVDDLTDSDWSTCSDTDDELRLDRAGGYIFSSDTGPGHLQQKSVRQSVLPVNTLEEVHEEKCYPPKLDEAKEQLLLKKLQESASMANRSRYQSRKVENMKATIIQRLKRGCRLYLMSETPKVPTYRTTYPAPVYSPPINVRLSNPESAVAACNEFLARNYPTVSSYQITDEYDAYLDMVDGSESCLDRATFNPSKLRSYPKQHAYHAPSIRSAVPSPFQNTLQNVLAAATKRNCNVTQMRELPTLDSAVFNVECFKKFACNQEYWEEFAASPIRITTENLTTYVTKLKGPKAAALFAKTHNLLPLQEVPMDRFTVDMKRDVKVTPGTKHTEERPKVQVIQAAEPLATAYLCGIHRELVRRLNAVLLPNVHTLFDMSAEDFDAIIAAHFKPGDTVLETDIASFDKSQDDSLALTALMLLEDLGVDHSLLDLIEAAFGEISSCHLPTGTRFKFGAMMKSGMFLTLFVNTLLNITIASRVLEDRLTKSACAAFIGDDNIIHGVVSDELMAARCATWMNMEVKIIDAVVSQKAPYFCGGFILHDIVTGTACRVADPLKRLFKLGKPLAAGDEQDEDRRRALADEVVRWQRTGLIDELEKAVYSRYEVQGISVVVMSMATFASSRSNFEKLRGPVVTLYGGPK
* = called active by the depositor; i = inactive; ? = inconclusive; ! = a repeat was not active; [ ] = remark or other dose. % is scaled to controls: 0 for no effect and ±100 for the full control effect; potency is read from the fitted curve at half-maximal effect. Some of the compounds tested; count on the stated rates, not on these rows.

Structure	nsP2pro inh
Cc1ccc(CN2CCC(CNc3cc(C4CC(O)C4)ncn3)CC2)o1 (stereo unspecified)	-9%
COc1ccc(NC(=O)NCCn2nnc3cc(S(=O)(=O)N(C)C)ccc32)cc1	-19%
COc1ccc(-c2cnc(NC(=O)Cc3ccc(F)cc3)c3c2CCO3)cn1	-5%[39.2 µM]
O=C(O)c1cc(O)c(O)c(O)c1	12µM*!
CCCCOc1ccc(C(=O)NCC(c2ccc(Cl)cc2)N2CCOCC2)cc1 (stereo unspecified)	-3%
COc1ccc2c(c1)c1c(c(=O)n(-c3ccc(F)c(Cl)c3)c(=O)n1CC(N)=O)n2C	-20%
CN(C)[S+](=O)([O-])c1ccc(-c2cncc(NC(=O)c3cccs3)c2)cc1	-14%
Cc1ccc(C(C(=O)O)N2CCC(C(=O)N3CCCC3)CC2)c(C)c1 (stereo unspecified)	1%
N#Cc1cccc(-c2ccc3n(c2=O)C[C@H]2C[C@@H]3CN(C(=O)c3ccc(F)cc3)C2)c1	i
COc1ccc(F)c(CN2CCC3(CCC(=O)N(CCO)C3)CC2)c1	0%
S=C(NC1CCCCC1)N[C@H]1CO[C@H]2[C@@H]1OC[C@@H]2n1cc(-c2ccccn2)nn1	13%[39.2 µM]
Cn1nc(-c2cccs2)cc1[C@H]1CN2CC[C@H]1C[C@@H]2CNS(C)(=O)=O	i
C=CCNc1oc(-c2cccc(Br)c2)nc1C#N	2%
Cc1ccc(N2CCN(C(=O)c3c4c(nc5ccccc35)C(=O)N(C3CCCCC3)C4)CC2)c(C)c1	?
O=C(N[C@@H]1CN(C(=O)Nc2ccccc2)CCC[C@H]1O)c1ccc(O)cc1	i
CCCCOc1ccccc1NC(=O)Cn1c(-c2cncs2)nc2ccccc21	1%
CCCC(=O)Nc1c(I)cc(I)c(CC(CC)C(=O)O)c1I (stereo unspecified)	-8%
Cc1cc(NS(=O)(=O)c2cc3c(cc2F)NC(=O)CC3)ccc1F	-10%
C/C(=C(\CCOC(=O)c1ccccc1)SS/C(CCOC(=O)c1ccccc1)=C(/C)N(C=O)Cc1cnc(C)nc1N)N(C=O)Cc1cnc(C)nc1N	8.8µM*
Cc1cc(C)cc(NC(=O)CSc2nc3sc4c(c3c(=O)[nH]2)CCCC4)c1	-21%
Cc1ccc(C)c(CSc2cn(CC(=O)N3CCCCCC3)c3ccccc23)c1	?
O=C1NC2(CCN(Cc3cccc4ccccc34)C2)OCc2ccccc21 (stereo unspecified)	i
CCOC(=O)[C@H](CCc1ccccc1)CC1(C(=O)N[C@H]2CCc3ccccc3N(CC(=O)O)C2=O)CCCC1	-13%
CCCCC(=O)N(c1ccc2oc(C)c(C(C)=O)c2c1)S(=O)(=O)c1ccc(F)cc1C	-18%
c1ccc(COc2ccc(CN3CCN(C4CCNC4)CC3)cc2)cc1 (stereo unspecified)	-5%
COc1ccc(CN[C@H]2CC(C)(C)[C@@H]3C[C@@](C)(O)CC[C@]23CCC(=O)NCc2ccco2)cc1	-21%
Cc1ccc(Nc2ccc(N3CCN(C(=O)c4ccc([N+](=O)[O-])cc4Cl)CC3)nn2)cc1	-18%
COc1cccc(CNC(=O)Cn2nc(C)n3c(cc4cc(C)ccc43)c2=O)c1OC	-19%
Cc1cc(N[S+](=O)([O-])c2cc3c(cc2Cl)CCC(=O)N3)ccc1Br	i
CC(C)N(C(=O)c1ccccc1-c1ccc(CS(C)(=O)=O)cn1)C(C)C	-5%
COc1cc(C2SC[C@H]3C(=O)N(c4ccccc4)C(=O)N23)cc(OC)c1OC (stereo partly specified)	-14%
CCC(Cc1ccccc1)NC(=O)c1cccc(Nc2nc3ccccc3nc2-n2nc(C)cc2C)c1 (stereo unspecified)	-3%
O=C(NC[C@H]1O[C@@H](Cc2nc(-c3ccc(OC(F)(F)F)cc3)no2)[C@H](O)[C@@H]1O)C1CC1	-6%
C/C(=C\CO)CC/C=C(\C)C(=O)O[C@H]1[C@H](OC2OC=C(C(=O)O)C3CCC(C)(O)C23)O[C@H](CO)[C@@H](O)[C@@H]1O (stereo partly specified)	48%[10 µM]
COc1ccc(NC(=O)c2c(C)oc3ccc(O)c(CN4CCN(Cc5ccccc5)CC4)c23)cc1Cl	-9%
CC(C)(C)c1cc(C(C)(C)C)c2oc(=O)c(-c3nc4ccccc4[nH]3)cc2c1	-26%
Cc1cnn(CCC(=O)N2CCCC(c3nnc(Cn4ccnc4)n3C)C2)c1 (stereo unspecified)	3%
Cc1ccc(C)c(SC2=CS(=O)(=O)c3ccccc32)c1	i
O=C([C@@H]1CCCN1C(=O)Cn1ccc2ccccc2c1=O)N1CCOCC1	-1%
CO[C@@H](Cc1ccc(OCCc2nc(-c3ccccc3)oc2C)c2ccsc12)C(=O)O	9.9µM*
O=C(C1CC1)N1CCOc2ccc(CN3CCCC3)cc2C1	i
CN(C(=O)CSc1nc2ccc(NC(=O)c3ccccc3F)cc2s1)c1ccccc1	-12%
C=C(C)[C@@H]1CC[C@]2(C)CC[C@]3(C)[C@H](CC[C@@H]4[C@@]5(C)CC[C@H](O)C(C)(C)[C@@H]5CC[C@]43C)[C@@H]12	-22%[10 µM]
O=C(O)c1ccco1	?
CC1(O)CCCC2(C)C1CCC13CC(CO)C(CCC12)C3 (stereo unspecified)	-20%
CC[C@H](C)[C@@H]([C@@H](CC(=O)N1CCC[C@H]1[C@H](OC)[C@@H](C)C(=O)NCCc1ccccc1)OC)N(C)C(=O)[C@@H](NC(=O)[C@H](C(C)C)N(C)C)C(C)C	-4%
CCCCN(CC)CCCNC(=O)CN1C(=O)CSc2ccc(S(=O)(=O)N3CCOCC3)cc21	-8%
O=C(NCc1ccc(Cl)cc1)NCc1noc2ccccc12	-28%
CCC=CCC=CCC=CCCCCCCCC(=O)O	-30%
Cn1cccc1CN=C1NC2=C(C(=O)CCC2)C(c2[nH]ncc2Cl)N1 (stereo unspecified)	-2%
S=C(c1ccc(-c2ccc(Cl)c(Cl)c2)o1)N1CCCCC1	?
CCCCN(Cc1ccccc1)S(=O)(=O)c1ccc2c(c1)CC(C)N2C(=O)CC (stereo unspecified)	-17%
COC1C=CC23c4cc5c(cc4COC2(O)CN(C)C3C1)OCO5 (stereo unspecified)	0%
Cc1ccc(S(=O)(=O)c2nc(-c3cccs3)oc2SCc2ccc(F)cc2)cc1	-16%
c1ccc(Cn2cc(CN3CCN(c4ccncc4)CC3)c(-c3cc4ccccc4o3)n2)cc1	i
CC1OC(OC2C(OC(=O)[C@]34CCC(C)(C)C[C@H]3C3=CCC5[C@@]6(C)CC[C@H](OC7OC(C(=O)O)C(O)C(O)C7O)C(C)(C)C6CC[C@@]5(C)[C@]3(C)CC4O)OC(CO)C2O)C(O)C(O)C1OC1OCC(O)C(O)C1O (stereo partly specified)	-3%[5.1 µM]
COc1ccc(NC(=O)c2cc(C)nc3c2c(C)nn3-c2ccc(C)cc2)cc1OC	-23%
Cc1ccncc1C(=O)N1CC[C@@H]2CN(S(C)(=O)=O)[C@@H]2C1	i
CC1OC(OC2CCC3(C)C(CCC4(C)C3C=CC35OCC6(CCC(C)(C)CC63)CCC45C)C2(C)CO)C(OC2OC(CO)C(O)C(O)C2O)C(O)C1OC1OC(CO)C(O)C(O)C1O (stereo unspecified)	14%[5.1 µM]
Cc1nc(CCNC(=O)[C@H]2CCC[C@H](O)C2)nc2c1CCC2	i

The results go on:
Structure	nsP2pro inh
N#Cc1ccc(-c2csc(NN=C3CCCC3)n2)cc1	26%
O=C(Nc1nnc(-c2ccco2)o1)c1ccc(C(F)(F)F)cc1	i
COc1ccccc1OC1=NS(=O)(=O)c2ccccc21	i
COc1ccc(CNC(=O)c2nc(SCc3ccc(C)cc3)ncc2Cl)cc1	17%
Cn1c(=O)c2c([nH]c(=O)n2Cc2ccc(Cl)cc2Cl)n(C)c1=O	?
Cc1cc(C)n2ncc(C(=O)Nc3cccc(C#N)c3)c2n1	-7%[5.1 µM]
O=C(c1cc2ccccc2oc1=O)N(Cc1cccc(Cl)c1)C1CCS(=O)(=O)C1 (stereo unspecified)	-20%
CCCN(c1c(C)n(C)n(-c2ccccc2)c1=O)S(=O)(=O)c1ccc(C)cc1	-17%
CC(=O)Nc1ccc(NC(=O)CN(C)S(=O)(=O)c2ccc3c(c2)CCCC(=O)N3)cc1	-6%
CC(=O)Nc1sc2c(c1-c1cnn(C(C)=O)c1)CCNC2	-25%
COc1ccc([N+](=O)[O-])c(S(=O)(=O)c2ccc(Cl)cc2)n1	6.3µM*
Cc1ccc(S(=O)(=O)Nc2nc3n(n2)C(c2ccc(F)cc2)C=C(c2ccccc2)N3)cc1 (stereo unspecified)	-27%
c1nc(NCC2CCCOC2)c2cc(-c3ccc4c(c3)OCO4)ccc2n1 (stereo unspecified)	2%
COc1ccc(-c2c(C)c3ccc(O)c(CN4CCCCC4)c3oc2=O)cc1OC	-10%
CC(=O)OC(C)OC(=O)C(C)c1ccc(-c2ccccc2)c(F)c1 (stereo unspecified)	-11%
CN1C(=O)CC(=O)N(C)c2cc(S(=O)(=O)N(C)Cc3ccccc3)ccc21	?
COc1cc([C@@H]2c3cc4c(cc3[C@@H](O[C@@H]3O[C@@H]5CO[C@@H](C)O[C@@H]5[C@H](O)[C@@H]3O)[C@H]3COC(=O)[C@H]23)OCO4)cc(OC)c1O	-6%
O=c1[nH]c2ccc(S(=O)(=O)N3CCN(S(=O)(=O)c4c(F)cccc4F)CC3)cc2[nH]c1=O	-6%
C=CC(=O)Nc1cc(Nc2ncc(C(=O)OC(C)C)c(-c3cn(C)c4ccccc34)n2)c(OC)cc1N(C)CCN(C)C	-17%
CN(C)c1ccc(C(=O)OCC#CCSc2nnc(-c3cccc4ccccc34)o2)cc1	i
CCOC(=O)OC(C)OC(=O)[C@@H]1N2C(=O)[C@@H](NC(=O)[C@H](N)c3ccccc3)[C@H]2SC1(C)C (stereo partly specified)	1%
O=C(Nc1cccnc1)C1CCCCC1	2%
COc1cccc(-c2cccc(C(=O)N3CCN([S+](=O)([O-])c4ccc(C)cc4)CC3)c2)c1	i
CCOC(=O)c1noc2ncn(Cc3cccc(C#N)c3)c(=O)c12	-13%
CC(C)(O)C1OC1C1=CC(=O)C2(C)OC2C1O (stereo unspecified)	9.9µM*
COc1ccccc1N1CCN(C(=O)CSc2nc3ccccc3nc2Cc2ccc(F)cc2)CC1	-17%
COc1ccccc1CNC(=O)c1ccc2c(c1)N(C)C1CCCCN1C2=O (stereo unspecified)	3%
CC[N+](C)(CC)CCOC(=O)C1c2ccccc2Oc2ccccc21	16%
Cc1cc(C)nc(NC(=S)N2CCN(C3=Nc4ccccc4Oc4ccccc43)CC2)c1	-9%
COc1ccc(NCc2nc3ccccc3n2CCOc2ccccc2C)cc1	30%

Look-ups from above:
Cc1ccc(S(=O)(=O)Nc2nc3n(n2)C(c2ccc(F)cc2)C=C(c2ccccc2)N3)cc1 (stereo unspecified) | nsP2pro inh = -27%
Cc1cc(C)nc(NC(=S)N2CCN(C3=Nc4ccccc4Oc4ccccc43)CC2)c1 | nsP2pro inh = -9%
COc1cc([C@@H]2c3cc4c(cc3[C@@H](O[C@@H]3O[C@@H]5CO[C@@H](C)O[C@@H]5[C@H](O)[C@@H]3O)[C@H]3COC(=O)[C@H]23)OCO4)cc(OC)c1O | nsP2pro inh = -6%
O=c1[nH]c2ccc(S(=O)(=O)N3CCN(S(=O)(=O)c4c(F)cccc4F)CC3)cc2[nH]c1=O | nsP2pro inh = -6%
CC(=O)Nc1sc2c(c1-c1cnn(C(C)=O)c1)CCNC2 | nsP2pro inh = -25%

Carrying on.
Structure	nsP2pro inh
C[C@@H]1C[C@H]2[C@@H]3CCC4=CC(=O)C=C[C@]4(C)[C@@]3(F)[C@@H](O)C[C@]2(C)[C@@]1(O)C(=O)COP(=O)(O)O	11%
O=S(=O)(N[C@H]1CCCC[C@@H]1N1CCOCC1)c1ccc(Cl)cc1	9%
CCSc1nc(-c2cccc(Cl)c2)nc2c1Cc1c(CO)cnc(C)c1O2	-25%
O=C(N[C@H](Cc1cscn1)C(=O)N[C@@H](CC1CCCCC1)[C@@H](O)[C@@H](O)C1CC1)c1nc2ccccc2[nH]1	6%
COC(=O)c1ccc(=O)c2nc3/c(=C/O)c(O)cc(=O)c3[nH]c12	432%[activator]
CCCCc1ccc(NS(=O)(=O)c2cc3c4c(c2)CC(=O)N4CCC3)cc1	-8%
N=C(N)c1cccc(C[C@H](NS(=O)(=O)c2cccc(-c3ccc(Cl)cc3Cl)c2)C(=O)N2CCC(CCN)CC2)c1	-25%
OCC1(CC2CC2)CCCN(Cc2ccc(C(F)(F)F)nc2)C1 (stereo unspecified)	-6%
Cc1ncoc1C(=O)N1C[C@@H](COCC2CC2)[C@H](c2ccccn2)C1	1%
CC(C/C=C/C(C)(C)O)C1CCC(C)(O)C(O)C1 (stereo unspecified)	-16%
CCCCSCCCNC(=O)c1cn(C)c2ccc(S(=O)(=O)N3CCCCC3)cc2c1=O	-13%
Oc1cccc(-c2nc(N3CCOCC3)c3sccc3n2)c1	12%
COc1cc(C2c3cc4c(c(O)c3CC(CO)C2C(=O)O)OCO4)cc(OC)c1O (stereo unspecified)	78%[activator][10 µM]
Cc1ccc(S(=O)(=O)C(CNC(=O)COc2ccccc2)c2ccco2)cc1 (stereo unspecified)	-19%
CC(C)Oc1ccc(-c2csc(N3CCC(C(N)=O)CC3)n2)cc1	i
CCCCNC(=S)NCCCN(Cc1ccc(Cl)c(Cl)c1)c1ccc(Br)cn1	5%
CCOc1ccc2oc(=O)cc(CN3CCN(c4ccc(Cl)cc4)CC3)c2c1	-19%

2 compounds picked at random from those above:
Structure	nsP2pro inh
CC(C/C=C/C(C)(C)O)C1CCC(C)(O)C(O)C1 (stereo unspecified)	-16%
COC1C=CC23c4cc5c(cc4COC2(O)CN(C)C3C1)OCO5 (stereo unspecified)	0%
